Source: PubChem BioAssay (Broad Institute)
AF4-AF9 inh – blocks AF4 peptide binding to human AF9; 0.47% of 350,000 active; AlphaScreen, biotin-AF4 peptide binding to FLAG-AF9; inhibition, % at 10 µM; P42568; AID 651704;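 active = every replicate reaching a set inhibition limit, whatever the replicate mean, cut at about 25% in these data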;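 also: 0% = plate neutral control median and 100% = total signal loss; the record names both 10 and 1 µM as test concentration; the first replicate is given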
Target sequence (P42568 whole entry, looked up): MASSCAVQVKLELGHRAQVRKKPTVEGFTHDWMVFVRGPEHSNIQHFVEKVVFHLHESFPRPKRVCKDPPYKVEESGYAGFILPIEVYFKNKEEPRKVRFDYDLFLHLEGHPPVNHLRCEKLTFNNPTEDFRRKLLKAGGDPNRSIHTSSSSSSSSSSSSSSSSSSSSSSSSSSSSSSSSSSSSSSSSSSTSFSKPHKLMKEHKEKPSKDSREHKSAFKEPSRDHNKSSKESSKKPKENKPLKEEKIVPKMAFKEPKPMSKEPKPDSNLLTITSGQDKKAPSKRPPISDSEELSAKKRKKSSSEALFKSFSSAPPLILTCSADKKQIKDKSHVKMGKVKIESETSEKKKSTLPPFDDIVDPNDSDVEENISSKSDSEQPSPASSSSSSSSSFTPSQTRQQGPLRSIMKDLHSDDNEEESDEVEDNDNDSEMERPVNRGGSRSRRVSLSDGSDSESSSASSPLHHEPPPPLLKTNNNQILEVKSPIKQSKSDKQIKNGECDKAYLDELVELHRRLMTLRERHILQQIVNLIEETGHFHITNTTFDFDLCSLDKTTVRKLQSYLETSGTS
rRNA inh HTS – inhibitors of bacterial rRNA selective over humanized ribosomes. AID 720706. E. coli WT GFP vs humanized-ribosome RFP mutants, fluorescence, 24 h; active compounds read low; DMSO median 0, no signal -100. 1.6% of 350,000 active. GFP signal change (wild-type ribosome), % (no concentration beside the values);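 active = significant combined selectivity score with lowered wild-type GFP, culture density cut under 30%, mutant RFP and density less affected; inactive = any of these conditions unmet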; also: one replicate is shown; some compounds called inactive have numbers as strong as hits
rRNA inh HTS OD600 – also measured in rRNA inh HTS; calls as there; OD600 change, %; measured here: OD600 growth;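 optical density of the mix in the first replicate; 0 = DMSO median and -100 = no signal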
rRNA inh HTS RFP – second read-out of rRNA inh HTS, no call of its own (marks repeat the call); RFP signal change, %; measured here: RFP humanized mutant strains;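 first replicate; 0 = DMSO median and -100 = no signal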
* = called active by the depositor. An excerpt (hit frequency here may not be typical).

Screens by letter – A = AF4-AF9 inh; B = rRNA inh HTS; C = rRNA inh HTS OD600; D = rRNA inh HTS RFP
1) CCN1[C@H](C(=O)N(C)C)[C@@H](CO)[C@@H]2Cn3c(ccc(-c4ccc(OC)cc4)c3=O)[C@@H]21
  A: -1.0	B: -1	C: 6	D: 0.2

2) Cn1cnc(S(=O)(=O)N2CCCCC2c2cc(C(=O)Nc3cccc4c3CCCC4)no2)c1 (configuration not stated)
  A: 1.2	B: -5	C: -11	D: -2.5

3) O=C(C[C@@H]1C[C@H]2c3cc(NC(=O)c4cccnc4)ccc3O[C@H]2[C@@H](CO)O1)NCc1ccncc1
  A: 2.3	B: 1	C: 3	D: -1.4

4) C[C@H]1CN([C@@H](C)CO)C(=O)CCCn2cc(nn2)CO[C@H]1CN(C)C(=O)Nc1ccccc1F
  A: 5.8	B: -2	C: 5	D: 0.7

5) COc1ccc(CN(C)C[C@H]2Oc3ccc(NS(=O)(=O)c4ccc(OC)cc4)cc3C(=O)N([C@@H](C)CO)C[C@H]2C)cc1
  A: 2.3	B: 2	C: 3	D: 1.9

6) C[C@H]1CN([C@@H](C)CO)C(=O)Cc2cc(NC(=O)Cc3ccccc3)ccc2O[C@@H]1CN(C)Cc1ccc(-c2ccccc2)cc1
  A: 0.1	B: 3	C: -6	D: 1.9

7) CNC[C@H]1OCc2cnnn2CCCC(=O)N([C@H](C)CO)C[C@H]1C
  A: -1.3	B: 3	C: 2	D: -1.4

8) Cc1nc2c(o1)C(=O)c1ccccc1C2=Nc1ccccc1
  A: -1.0	B: 2	C: 3	D: 8.7

9) COCC#Cc1ccc2c(c1)O[C@@H](CN(C)C(=O)COC)[C@H](C)CN([C@@H](C)CO)S2(=O)=O
  A: -2.2	B: 0	C: -6	D: 0.9

10) CC(C)CCNC(=O)C1(C)CCN1Cc1ccc(-c2ccccn2)cc1 (configuration not stated)
  A: -0.2	B: -17	C: -24	D: -1.4

11) C[C@H](CO)N1C[C@H](C)[C@H](CN(C)C(=O)Nc2ccc(C(F)(F)F)cc2)Oc2c(NC(=O)C3CC3)cccc2C1=O
  A: -0.7	B: -8	C: -2	D: -0.9

12) Cc1cn([C@H]2C[C@H](O)[C@@H](/C=C/C(=O)NCCC(C)C)O2)c(=O)[nH]c1=O
  A: -0.7	B: 10	C: 7	D: -2.1

13) CO[C@H]1CN(C)C(=O)c2cccc(C#N)c2OC[C@H]2O[C@H](CC[C@H]2OC)CCN(C)C(=O)[C@H]1C
  A: -1.0	B: 2	C: 5	D: -2.7

14) COc1ccc(S(=O)(=O)N(C)C[C@H]2Oc3ccc(NC(=O)CCCN(C)C)cc3C(=O)N([C@H](C)CO)C[C@H]2C)cc1
  A: -1.0	B: 3	C: -5	D: -1.2

15) O=C1Nc2ccc([N+](=O)[O-])cc2C1=Nc1cccc(CO)c1
  A: -6.6	B: 1	C: 2	D: -0.7

16) Cc1ccc(S(=O)(=O)N[C@H]2CC[C@@H](CCNC(=O)Cc3ccccn3)O[C@H]2CO)cc1
  A: -0.1	B: 2	C: 5	D: -0.9

17) CO[C@H]1CN(C)C(=O)c2ccc(NC(=O)c3cc(C)on3)cc2OC[C@H](C)N(CC2CC2)C[C@H]1C
  A: -1.3	B: 2	C: 5	D: 1.4

18) Cc1ccccc1S(=O)(=O)N[C@@H]1CC[C@@H](CCn2cc(Cc3ccccc3)nn2)O[C@H]1CO
  A: -0.5	B: -5	C: -11	D: 0.5

19) COC(=O)[C@]12C[C@H](CC(=O)N3CCN(C(=O)c4ccco4)CC3)C(=O)N(CCC3=CCCCC3)C1=C[C@H](C(C)(C)C)O[C@@H]2C
  A: 7.0	B: 12	C: 8	D: 1.6

20) C[C@@H]1CN([C@H](C)CO)S(=O)(=O)c2ccc(C3=CCCCC3)cc2O[C@H]1CN(C)C(=O)c1ccncc1
  A: -1.1	B: 1	C: -2	D: -1.8

21) O=C(NCC(F)(F)F)[C@H]1[C@H](CO)[C@H]2Cn3c(ccc(-c4ccncc4)c3=O)[C@H]2N1Cc1ccncc1
  A: -3.8	B: 3	C: -5	D: -0.7

22) O=C(Nc1ccc(F)cc1)N[C@H]1CC[C@H](CCn2cc(-c3ccccc3F)nn2)O[C@@H]1CO
  A: -1.4	B: 0	C: -10	D: 5.8

23) COc1ccccc1-c1cnc2c(c1)C(=O)N([C@H](C)CO)C[C@H](C)[C@H](CN(C)C(=O)c1cccnc1)O2
  A: -1.3	B: -3	C: 0	D: -1.6

24) C[C@H]1CN([C@@H](C)CO)C(=O)c2c(c3ccccc3n2C)-c2ccccc2CO[C@H]1CN(C)Cc1ccc(C(=O)O)cc1
  A: -3.6	B: 2	C: 0	D: -1.1

25) COc1ccc(NC(=O)N2CCCCN3[C@@H](CO)[C@@H](c4ccc(-c5ccccc5F)cc4)[C@@H]3C2)cc1
  A: 3.0	B: -55	C: -79	D: -20

26) CN(C)c1ncnc2c1ncn2[C@H]1CN(Cc2cccs2)C[C@@H](CO)O1
  A: -3.5	B: -2	C: 1	D: 1.0

27) CC(C)NC(=O)N1CC2(C1)[C@H](c1ccccc1)[C@H](CO)N2CCC(F)(F)F
  A: 0.5	B: 2	C: 10	D: 0.3

28) CN(C)c1ccc2c(c1)[C@H]1C[C@H](CC(=O)NC3CCCC3)O[C@H](CO)[C@H]1O2
  A: 3.4	B: -1	C: 2	D: 4.3

29) C[C@@H]1CN([C@H](C)CO)C(=O)c2cc(NS(=O)(=O)c3cn(C)cn3)ccc2O[C@H]1CN(C)Cc1ccc(-c2ccccc2)cc1
  A: -5.5	B: -1	C: -4	D: 2.2

30) COc1ccc(-n2nnnc2C(c2ccnc3ccccc23)N2CCN(C/C=C/c3ccccc3)CC2)cc1 (configuration not stated)
  A: 9.5	B: 3	C: 4	D: -4.3

31) COCC#Cc1ccc([C@H]2[C@H](CO)N3CCCCN(C(=O)NC4CCCC4)C[C@@H]23)cc1
  A: 0.8	B: 2	C: 10	D: 1.3

32) Cc1ccc(S(=O)(=O)Nc2ccc3c(c2)CC(=O)N([C@H](C)CO)C[C@@H](C)[C@@H](CN(C)C(=O)Nc2ccc4c(c2)OCO4)O3)cc1
  A: -0.4	B: -2	C: -6	D: 2.6

33) CCOC(=O)C1CSCCS(=O)(=O)N1Cc1ccccc1C (configuration not stated)
  A: -1.0	B: -7	C: -1	D: 3.9

34) CCC(=O)Nc1ccc2c(c1)C(=O)N(C)[C@H]1CC[C@H](CC(=O)N[C@@H](C)c3ccccc3)O[C@@H]1CO2
  A: -1.5	B: -3	C: -6	D: -0.7

35) O=C(c1cccnc1)N1C[C@H]2[C@@H](c3ccccc31)[C@@H](CO)N2C(=O)Nc1ccccc1F
  A: -0.5	B: 2	C: 6	D: -1.4

36) O=C(C[C@H]1CC[C@@H]2[C@H](COC[C@@H](O)CN2C(=O)Nc2ccc(Cl)cc2)O1)NCC1CC1
  A: -1.3	B: -25	C: -26	D: -18

37) O=S(=O)(N[C@@H]1CC[C@H](CCn2cc(C3(O)CCCC3)nn2)O[C@H]1CO)c1ccc(F)cc1
  A: -0.7	B: 4	C: 4	D: 2.0

38) CN(C)C(=O)c1cccc(-c2ccccc2[C@@H]2[C@H](C#N)N(C(=O)C3CCCCC3)[C@H]2CO)c1
  A: 0.2	B: 2	C: 2	D: 8.6

39) CO[C@H]1CN(C)C(=O)c2ccc(NC(=O)C3CC3)cc2OC[C@H](C)N(C(=O)c2ccccc2F)C[C@@H]1C
  A: 0.3	B: 1	C: -1	D: -1.0

40) COc1cccc(NC(=O)N2CCc3nc(Nc4ccc(C(C)C)cc4)ncc3C2)c1
  A: 1.2	B: -2	C: -30	D: 38

41) CC(=O)Nc1ccc(CNc2nc(NCc3cccs3)nc3ccsc23)cc1
  A: -1.5	B: 12	C: -4	D: 1.5

42) C[C@@H]1CN([C@@H](C)CO)C(=O)c2cc(C3=CCCCC3)cnc2O[C@@H]1CN(C)Cc1ccc(C(=O)O)cc1
  A: -3.6	B: 0	C: 16	D: -2.8

43) C[C@@H]1CN([C@@H](C)CO)C(=O)CCCn2nncc2CO[C@H]1CN(C)C(=O)Nc1ccccc1
  A: -0.7	B: 0	C: 5	D: 2.5

44) C[C@@H]1CN([C@H](C)CO)C(=O)Cc2cc(NC(=O)NC3CCCCC3)ccc2O[C@H]1CN(C)S(=O)(=O)c1ccc(F)cc1
  A: 2.2	B: -2	C: -5	D: -1.5

45) O=C(C[C@@H]1C[C@@H]2c3cc(NC(=O)c4ccc5c(c4)OCO5)ccc3O[C@@H]2[C@H](CO)O1)NCc1cc(F)ccc1F
  A: -0.9	B: -1	C: -6	D: 1.5

46) O=C(C[C@H]1CC[C@@H]2[C@H](COC[C@@H](O)CN2Cc2ccc(F)cc2)O1)NCCc1ccccc1
  A: -1.9	B: -2	C: 1	D: 0.6

47) N#Cc1ccccc1OCc1cn(CC(=O)c2ccc(O)cc2)nn1
  A: -1.2	B: 5	C: 10	D: -0.2

48) CCS(=O)(=O)Nc1ccc2c(c1)C(=O)N(C)C[C@H](OC)[C@H](C)CN(Cc1ccccn1)[C@H](C)CO2
  A: -2.5	B: 1	C: -2	D: 0.4

49) CN1CCN(C(=O)C[C@H]2C[C@@H]3c4cc(NC(=O)C5CCOCC5)ccc4O[C@@H]3[C@@H](CO)O2)CC1
  A: -4.1	B: 0	C: -4	D: -1.8

50) CC1(C(=O)O)CCN1C(=O)c1cccc(OC(F)(F)F)c1 (configuration not stated)
  A: 2.0	B: 15	C: -1	D: 0.4

51) C[C@@H]1CN([C@@H](C)CO)C(=O)c2cc(NS(C)(=O)=O)ccc2O[C@@H]1CN(C)C(=O)Nc1ccc2c(c1)OCO2
  A: -7.4	B: 3	C: 6	D: -1.4

52) COc1ccc(NC(=O)N(C)C[C@H]2Oc3ccc(NC(=O)Nc4cccc5ccccc45)cc3C(=O)N([C@H](C)CO)C[C@H]2C)cc1
  A: 0.4	B: 0	C: 2	D: 0.1

53) C[C@H](CO)N1C[C@H](C)[C@H](CN(C)C)Oc2cc(-c3ccccc3F)ccc2S1(=O)=O
  A: -3.2	B: 3	C: -1	D: 0.3

54) CN(C)Cc1cn(CC[C@@H]2CC[C@H](N)[C@H](CO)O2)nn1
  A: -1.3	B: 3	C: 4	D: -2.1

55) CC(C)c1cn(CC[C@H]2CC[C@@H](NS(=O)(=O)c3ccc(F)cc3)[C@H](CO)O2)nn1
  A: -2.1	B: 0	C: 9	D: -3.4

56) COc1cccc(CNC(=O)C[C@@H]2C=C[C@H](NC(=O)C3CC3)[C@@H](CO)O2)c1
  A: -0.3	B: -1	C: -3	D: 2.9

57) CCCNC(=O)N1[C@H](C#N)[C@@H](c2ccc(-c3cccc(OC)c3)cc2)[C@@H]1CO
  A: 1.9	B: 3	C: -30	D: 14

58) CN(C)c1ccc2c(c1)[C@@H]1C[C@@H](CC(=O)NCc3ccc(Oc4ccccc4)cc3)O[C@@H](CO)[C@@H]1O2
  A: 12	B: -13	C: -56	D: 20

Compounds from the list above containing an aryl methoxy group, in the order listed:
Screens by letter – A = AF4-AF9 inh; B = rRNA inh HTS; C = rRNA inh HTS OD600; D = rRNA inh HTS RFP
1) CCN1[C@H](C(=O)N(C)C)[C@@H](CO)[C@@H]2Cn3c(ccc(-c4ccc(OC)cc4)c3=O)[C@@H]21
  A: -1.0	B: -1	C: 6	D: 0.2

5) COc1ccc(CN(C)C[C@H]2Oc3ccc(NS(=O)(=O)c4ccc(OC)cc4)cc3C(=O)N([C@@H](C)CO)C[C@H]2C)cc1
  A: 2.3	B: 2	C: 3	D: 1.9

14) COc1ccc(S(=O)(=O)N(C)C[C@H]2Oc3ccc(NC(=O)CCCN(C)C)cc3C(=O)N([C@H](C)CO)C[C@H]2C)cc1
  A: -1.0	B: 3	C: -5	D: -1.2

23) COc1ccccc1-c1cnc2c(c1)C(=O)N([C@H](C)CO)C[C@H](C)[C@H](CN(C)C(=O)c1cccnc1)O2
  A: -1.3	B: -3	C: 0	D: -1.6

25) COc1ccc(NC(=O)N2CCCCN3[C@@H](CO)[C@@H](c4ccc(-c5ccccc5F)cc4)[C@@H]3C2)cc1
  A: 3.0	B: -55	C: -79	D: -20

30) COc1ccc(-n2nnnc2C(c2ccnc3ccccc23)N2CCN(C/C=C/c3ccccc3)CC2)cc1 (configuration not stated)
  A: 9.5	B: 3	C: 4	D: -4.3

40) COc1cccc(NC(=O)N2CCc3nc(Nc4ccc(C(C)C)cc4)ncc3C2)c1
  A: 1.2	B: -2	C: -30	D: 38

52) COc1ccc(NC(=O)N(C)C[C@H]2Oc3ccc(NC(=O)Nc4cccc5ccccc45)cc3C(=O)N([C@H](C)CO)C[C@H]2C)cc1
  A: 0.4	B: 0	C: 2	D: 0.1

56) COc1cccc(CNC(=O)C[C@@H]2C=C[C@H](NC(=O)C3CC3)[C@@H](CO)O2)c1
  A: -0.3	B: -1	C: -3	D: 2.9

57) CCCNC(=O)N1[C@H](C#N)[C@@H](c2ccc(-c3cccc(OC)c3)cc2)[C@@H]1CO
  A: 1.9	B: 3	C: -30	D: 14
